Screening data from PubChem.
GIV Gai3 FP: GIV-Galpha-i interaction inhibition; percent of control (FP), % (concentration not given with the values); P08753; Galpha-i3/FITC-GIV peptide fluorescence polarization, 90 min; active compounds read low; scaled: aluminum fluoride 0%, vehicle 100%; 210,000 tested, 0.42% active;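 active = replicate mean at 85% of control or lower, very high polarization wells dropped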;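 note: wells of about 15 µL received 100 nL stock; the first replicate is given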
Target sequence (P08753 whole entry, looked up): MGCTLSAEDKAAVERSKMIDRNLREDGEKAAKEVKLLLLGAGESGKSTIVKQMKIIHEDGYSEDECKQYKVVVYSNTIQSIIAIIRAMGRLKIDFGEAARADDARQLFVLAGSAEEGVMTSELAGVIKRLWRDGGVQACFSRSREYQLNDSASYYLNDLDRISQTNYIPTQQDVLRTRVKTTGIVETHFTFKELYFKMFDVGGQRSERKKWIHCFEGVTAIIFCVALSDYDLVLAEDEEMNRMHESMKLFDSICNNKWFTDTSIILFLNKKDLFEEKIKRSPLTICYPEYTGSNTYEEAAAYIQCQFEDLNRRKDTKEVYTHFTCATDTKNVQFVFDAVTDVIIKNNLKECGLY
HCMV UL50-53 inh: disrupts HCMV UL50-UL53 complex binding; HTRF UL50-UL53 interaction, normalized percent inhibition; inhibition, % (concentration not given with the values); 190,000 tested, 0.15% active;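 active = both replicates at 50% or more, plus weaker picks with an unusually low signal ratio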;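 note: stock transfer was 100 nL into about 20 µL; 0% = negative control wells and 100% = wells with untagged competitor protein; inactives centre near -12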
Sa growth 42C: S. aureus growth inhibition | S. aureus RN4220 growth, OD600, 20 h, 42 °C; active compounds read low | relative growth, % (test concentration not listed) | 170,000 tested, 0.53% active | AID 720641;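 active = growth at 42 °C up to 50% and 20 or more points under that at 30 °C, or under 10% at both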;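 note: 300 nL library stock went into each well; scaled to the means of positive and negative controls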
Sa growth 42C second temp: also measured in Sa growth 42C; calls as there; relative growth, %; measured here: growth at 30 °C;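 optical density after 20 h as mean of two plates; 100% = untreated growth and lower means inhibition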
Numbers without * were called inactive; . = no result given; & = joins results of further samples.

Order of results: GIV Gai3 FP | HCMV UL50-53 inh | Sa growth 42C | Sa growth 42C second temp
Cc1ccc(NC(=O)Cn2c(=O)cc(-c3ccccc3)c3c(C)nn(C)c32)c(Cl)c1
→ 104 | . | 118 | 92
COc1ccc(CC(=O)NCC(c2ccc(N(C)C)cc2)N2CCOCC2)cc1OC (stereo not given)
→ 105 | . | 91 | 87
COc1ccc(Nc2nc3[nH]c(=O)cc(O)c3s2)cc1
→ 122 | 0 | 84 | 74
CC1CCN(C(=O)c2cc(-c3cccnc3)n[nH]2)CC1
→ 102 | -2 | . | .
CC(C)CN(CC(C)C)S(=O)(=O)N1CCC(C(=O)N2CCc3ccccc3C2)CC1
→ 105 | . | 126 | 82
Cc1cc(-c2ccc(S(=O)(=O)Nc3ccccc3)s2)n[nH]1
→ 105 | 4 | 93 | 108
COc1cc(C=C2C(=O)NC(=O)NC2=O)ccc1OCCOc1ccc(C)cc1
→ 110 | -5 | . | .
CCOc1ccc(NCC2C(Oc3ccc(Cl)cc3)C(=O)N2c2ccc(OCC)cc2)cc1 (stereo not given)
→ 99 | -35 | . | .
N#CCCS(=O)(=O)c1ccc(Oc2ccc(S(=O)(=O)CCC#N)cc2)cc1
→ . | 1 | 122 | 88
Clc1ccc(C(c2ccccc2)c2c[nH]c3ccccc23)s1 (stereo not given)
→ 103 | . | 73 | 101
CCOc1c(OC)cc(C#N)cc1C(=O)O
→ 103 | -31 | 124 | 98
Cc1cc(C(=O)COC(=O)Cn2c(C(F)(F)F)nc3ccccc32)c(C)n1Cc1ccco1
→ . | -30 | 71 | 91
Cc1ccc(C)c(C(=O)COC(=O)c2ccc[nH]c2=O)c1
→ . | -13 | 69 | 92
Cc1ccccc1OCc1nc(-c2ccc(NC(=O)c3ccc(Br)o3)cc2)no1
→ 102 | -26 | 126 | 90
O=c1c(CN2CCN(Cc3ccccc3)CC2)coc2ccccc12
→ 100 | 9 | 99 | 114
COc1cccc(-c2nc(-c3cc(C)n(C4CC4)c3C)cs2)c1OC
→ . | -10 | 87 | 68
CN(C)CCC(=O)c1ccc2c(c1)OCCCO2
→ . | -1 | 96 | 86
CCN1CCc2c(sc(-n3cccc3)c2C(C)NC(=O)Nc2ccc(Br)cc2)C1 (stereo not given)
→ 124 | . | 115 | 37
O=C(NCCC1=CCCCC1)c1ccc2c(c1)ncn2-c1cccc(Cl)c1
→ 102 | . | 121 | 90
CCc1ccc(NC(=O)CSc2nnc(CNC(=O)c3ccc4c(c3)OCO4)n2C)cc1
→ 97 | -13 | 104 | 99
N=c1c2c(-c3ccccc3)c(-c3ccccc3)oc2ncn1CCCO
→ 100 | -46 | 85 | 64
COc1ccc(S(=O)(=O)N(C)C2(C)CCS(=O)(=O)C2)cc1C (stereo not given)
→ . | -10 | 98 | 88
CCCCn1c(-c2ccc(C)cc2)c(C)n2c3c(=O)n(C)c(=O)n(C)c3nc12
→ 106 | . | 70 | 72
Cc1cc(C)n2nc(N(Cc3cccc(F)c3)S(=O)(=O)c3ccccc3)nc2n1
→ 107 | -25 | . | .
Cn1c(=O)n(C)c2cc(N3CCOCC3)c(NC(=O)c3c(F)cccc3F)cc21
→ 107 | 6 | 94 | 99
O=C(OCCn1c2ccccc2c2nc3ccccc3nc21)c1cccnc1
→ 103 | -14 | 110 | 88
Cc1ccc2c(Cl)c(C(=O)Nc3nc4c(s3)CCCC4)sc2c1
→ 101 | -8 | . | .
COC(=O)c1cc(S(=O)(=O)N2CCCC2C(=O)Nc2ccc(F)cc2F)cn1C (stereo not given)
→ 99 | -6 | . | .
CCNC(=O)c1ccc(-n2nc(C(F)(F)F)c3c2CCCC3)cc1
→ 104 | -4 | 105 | 104
O=S(=O)(c1ccc2c(c1)OCCO2)N1CCc2cc3ccccc3nc21
→ 103 | -17 | . | .
COc1ccc(NC(=O)CCc2nc3cccnc3n2-c2ccccc2)cc1Cl
→ 104 | -37 | 113 | 90
Cc1ccccc1OCC(=O)Nc1ccc(OCc2cc(=O)n3[nH]cnc3n2)cc1
→ 110 | -26 | . | .
Cc1c(O)nc(SCC(=O)Nc2ccc(Cl)cc2Cl)n(-c2ccc(F)cc2)c1=O
→ 105 | -24 | 92 | 104
Cc1ccc(C)n1CCN1CCN(C(=O)c2ccc(Cl)cc2)CC1
→ 101 | 2 | 89 | 49
Cc1nn(-c2ccccc2)c(C)c1CN(C)CC(=O)Nc1ccc(S(=O)(=O)N(C)C)cc1
→ . | -19 | 81 | 80
Oc1cc2c(cc1CN1CCc3ccccc3C1)CCC2
→ . | -5 | 89 | 94
CCCn1c(SCC(=O)c2cccs2)n[nH]c1=O
→ . | -7 | 89 | 94
COC(=O)c1cc2sccc2n1CC(=O)Nc1cc(OC)cc(OC)c1
→ 105 | . | 94 | 74
CC(C)=C1N=C(c2ccc(Cl)cc2)OC1=O
→ 104 | . | 79 | 85
COC(=O)c1ccccc1NC(=O)c1ccc(-c2nc(CSc3ccc(C)cc3)c(C)o2)cc1
→ 101&107 | -13 | 94 | 91
NC1=NC(=O)C(CC(=O)Nc2cccc(C(=O)NCCc3ccc(S(N)(=O)=O)cc3)c2)S1 (stereo not given)
→ . | -2 | 83 | 88
CN(C)c1ccc(/C=N/NC(=O)CN2CC(c3ccccc3)CC2=O)cc1 (stereo not given)
→ 102 | -24 | 96 | 92
Cc1ccc2c(c1)CC(C)N2S(=O)(=O)c1nnc(NC(=O)C(C)C)s1 (stereo not given)
→ 100 | -5 | 91 | 82
Cc1cc(C)nc(-n2nc(C)c3c2N(Cc2ccccc2C)C(=O)CC3c2ccc(Cl)cc2)n1 (stereo not given)
→ 97 | -29 | 101 | 87
Nc1ccc(C(=O)NN=C2C3CC4CC2CC(O)(C4)C3)cc1
→ 107 | -5 | 104 | 84
CCOC(=O)CC1=Nn2c(nnc2C2CCCCC2)SC1
→ . | -30 | 87 | 86
NC(=S)N(c1ccccc1)c1ccccc1
→ 105 | -4 | 64 | 81
Cc1ccc(C)c(SCC(=O)NC(=O)NC2CCCC2)c1
→ . | -5 | 76 | 85
O=C(O)CCC(=O)N1CCCc2ccccc21
→ 111 | -11 | 98 | 96
CC1CCCC(N2CCC(N3CCN(CCO)CC3)CC2)C1 (stereo not given)
→ 108 | 0 | 107 | 84
CC1(c2ccccc2)CC(C)(C)N2C(=O)/C(=C3\SC(=O)NC3=O)c3cccc1c32 (stereo not given)
→ . | -18 | 40 | 22
COc1ccc(Nc2cc(C)nc(N3CCCCC3)n2)cc1
→ 104 | -9 | . | .
O=C(N/N=C1\CC(=O)c2ccccc21)c1ccc(CSc2nc3ccccc3o2)cc1
→ . | -4 | 111 | 69

Molecules from the list above that contain a halogen, in the order listed:
Order of results: GIV Gai3 FP | HCMV UL50-53 inh | Sa growth 42C | Sa growth 42C second temp
Cc1ccc(NC(=O)Cn2c(=O)cc(-c3ccccc3)c3c(C)nn(C)c32)c(Cl)c1
→ 104 | . | 118 | 92
CCOc1ccc(NCC2C(Oc3ccc(Cl)cc3)C(=O)N2c2ccc(OCC)cc2)cc1 (stereo not given)
→ 99 | -35 | . | .
Clc1ccc(C(c2ccccc2)c2c[nH]c3ccccc23)s1 (stereo not given)
→ 103 | . | 73 | 101
Cc1cc(C(=O)COC(=O)Cn2c(C(F)(F)F)nc3ccccc32)c(C)n1Cc1ccco1
→ . | -30 | 71 | 91
Cc1ccccc1OCc1nc(-c2ccc(NC(=O)c3ccc(Br)o3)cc2)no1
→ 102 | -26 | 126 | 90
CCN1CCc2c(sc(-n3cccc3)c2C(C)NC(=O)Nc2ccc(Br)cc2)C1 (stereo not given)
→ 124 | . | 115 | 37
O=C(NCCC1=CCCCC1)c1ccc2c(c1)ncn2-c1cccc(Cl)c1
→ 102 | . | 121 | 90
Cc1cc(C)n2nc(N(Cc3cccc(F)c3)S(=O)(=O)c3ccccc3)nc2n1
→ 107 | -25 | . | .
Cn1c(=O)n(C)c2cc(N3CCOCC3)c(NC(=O)c3c(F)cccc3F)cc21
→ 107 | 6 | 94 | 99
Cc1ccc2c(Cl)c(C(=O)Nc3nc4c(s3)CCCC4)sc2c1
→ 101 | -8 | . | .
COC(=O)c1cc(S(=O)(=O)N2CCCC2C(=O)Nc2ccc(F)cc2F)cn1C (stereo not given)
→ 99 | -6 | . | .
CCNC(=O)c1ccc(-n2nc(C(F)(F)F)c3c2CCCC3)cc1
→ 104 | -4 | 105 | 104
COc1ccc(NC(=O)CCc2nc3cccnc3n2-c2ccccc2)cc1Cl
→ 104 | -37 | 113 | 90
Cc1c(O)nc(SCC(=O)Nc2ccc(Cl)cc2Cl)n(-c2ccc(F)cc2)c1=O
→ 105 | -24 | 92 | 104
Cc1ccc(C)n1CCN1CCN(C(=O)c2ccc(Cl)cc2)CC1
→ 101 | 2 | 89 | 49
CC(C)=C1N=C(c2ccc(Cl)cc2)OC1=O
→ 104 | . | 79 | 85
Cc1cc(C)nc(-n2nc(C)c3c2N(Cc2ccccc2C)C(=O)CC3c2ccc(Cl)cc2)n1 (stereo not given)
→ 97 | -29 | 101 | 87

Random draw from the library; 0.79% or so of the library scored in one or more.
